Screens: PubChem, several laboratories
Ecoli growth – blocks Escherichia coli growth; OD600, 23 h; hits give low values; OD600 absorbance (concentration not given with the values); actives 0.21% (n = 330,000); AID 1053175;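 active means OD600 absorbance below the run mean of sample wells minus 3.6 SD, in any replicate, cut at about 0.56 in these data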;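 further: stock transfer was 300 nL into about 60 µL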
UCH37 inh – human UCH37 deubiquitinating enzyme inhibition. purified proteasome/UCH37, Ub-AMC cleavage fluorescence. Q9Y5K5. AID 588478. inhibition, % (test concentration not listed). actives 0.33% (n = 330,000);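 active means mean of two replicates above 20%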;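 further: 0% = compound-free wells with enzyme and 100% = wells lacking proteasome; stock transfer was 100 nL into about 20 µL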
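assay system = human UCH37 enzyme supplied as purified proteasome complex | amount = proteasome at 0.15 nM in the dispensed enzyme solution | schedule = 30 min compound-proteasome preincubation then 25 min substrate reaction, room temperature | measured by = fluorescence, ex 355 nm, em 460 nm | benchmarks = no-proteasome wells (full inhibition) and compound-free wells (no inhibition)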
HNF4A DNA FP – change in binding of human HNF4 alpha to DNA | P41235 | HNF4a-FITC DNA binding, fluorescence polarization, 1 h | activity change, % at 10 µM | actives 0.3% (n = 360,000); in the data active means activity change above about 30%, passing the limit was not always enough;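 further: controls were the assay level and a saturating level of protein; the project sought stronger binding though the title names inhibitors; some compounds called inactive have numbers as strong as hits; positive values seem to mean higher polarization but the record does not say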
Target sequence (P41235 whole entry, looked up): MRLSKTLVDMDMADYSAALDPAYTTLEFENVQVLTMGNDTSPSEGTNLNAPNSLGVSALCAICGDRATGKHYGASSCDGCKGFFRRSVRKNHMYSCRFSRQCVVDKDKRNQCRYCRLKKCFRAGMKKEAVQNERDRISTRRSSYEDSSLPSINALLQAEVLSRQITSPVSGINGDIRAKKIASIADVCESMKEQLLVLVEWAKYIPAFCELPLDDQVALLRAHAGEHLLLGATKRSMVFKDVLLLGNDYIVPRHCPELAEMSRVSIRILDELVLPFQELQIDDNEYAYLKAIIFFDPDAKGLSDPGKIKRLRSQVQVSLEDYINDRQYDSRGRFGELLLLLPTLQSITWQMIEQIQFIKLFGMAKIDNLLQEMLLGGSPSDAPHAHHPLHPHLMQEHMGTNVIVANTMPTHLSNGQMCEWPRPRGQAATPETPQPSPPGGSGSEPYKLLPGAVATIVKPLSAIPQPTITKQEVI
MLL AF4-AF9 inh – MLL-AF4/AF9 protein interaction inhibition. inhibition, % at 10 µM. AlphaScreen, biotin-AF4 peptide binding to FLAG-AF9. actives 0.47% (n = 350,000). P42568;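 active means every replicate reaching a set inhibition limit, whatever the replicate mean, cut at about 25% in these data; inconclusive means mean inhibition reaches that limit but some replicates miss it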;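 further: 0% = plate neutral control median and 100% = total signal loss; the record names both 10 and 1 µM as test concentration; the first replicate is given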
Target sequence (P42568 whole entry, looked up): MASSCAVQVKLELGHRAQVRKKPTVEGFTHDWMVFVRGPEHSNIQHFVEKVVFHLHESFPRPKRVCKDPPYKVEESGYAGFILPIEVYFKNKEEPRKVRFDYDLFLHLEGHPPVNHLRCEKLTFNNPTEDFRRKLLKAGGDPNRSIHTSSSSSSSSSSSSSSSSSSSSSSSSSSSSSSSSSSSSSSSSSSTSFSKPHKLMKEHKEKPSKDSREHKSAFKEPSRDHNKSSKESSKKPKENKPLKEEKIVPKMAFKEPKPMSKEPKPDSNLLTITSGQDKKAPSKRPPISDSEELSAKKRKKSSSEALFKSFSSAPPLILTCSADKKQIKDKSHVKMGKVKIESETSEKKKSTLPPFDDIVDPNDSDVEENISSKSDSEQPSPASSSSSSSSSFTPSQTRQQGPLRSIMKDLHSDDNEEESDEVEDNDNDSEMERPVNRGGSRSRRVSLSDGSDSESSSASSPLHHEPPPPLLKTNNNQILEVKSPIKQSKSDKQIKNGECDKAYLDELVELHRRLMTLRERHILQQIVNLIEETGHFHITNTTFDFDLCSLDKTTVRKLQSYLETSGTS
Vif A3G – HIV-1 Vif–A3G interaction blockers – biochemical, TR-FRET, GST-Vif 1-94, biotin-A3G peptide, dose response retest, primary screen (AID 1117319); TR-FRET GST-Vif / biotin-A3G peptide binding; higher % means a stronger effect; test concentration not given here; strong numbers were not always called active; inhibition, %; hits with a dose series show IC50 in µM; actives 0.57% (n = 260,000);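 active means above the screen mean plus three standard deviations and confirmed in dose response; inconclusive means results disagree or hit not tested in dose response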;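 further: Vif residues 1-94 fused to GST binding biotinylated APOBEC3G peptide 110-148; 0% = full assay without inhibitor and 100% = GST in place of GST-Vif; retest series ran down from 100 µM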
FGF22 binding – binders of recombinant human FGF22 by thermal shift; Q9HCT0; SYPRO orange fluorescence; percent of sucrose octasulfate shift, DMSO zero; calls only at 9.99 µM; actives 1.5% (n = 340,000); AID 651658;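 active means melting point raised past a set limit in the mean and every replicate; inconclusive means no clear call; three in four hits are not shown here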
RanGTP-Impb inh – disruptors of Ran-importin-beta complex formation – biochemical, FRET, CFP-Ran, YFP-importin-beta, homogeneous, primary screen; AID 2216; inhibition, % (concentration not given with the values); cell-free CFP-Ran/YFP-importin-beta FRET ratio; actives 1.1% (n = 300,000);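 active means most replicates above 15%; inconclusive means exactly half above 15%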;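 further: 0% = DMSO wells and 100% = Ran loaded with GDP instead of GTP; wells of about 40 µL received 100 nL stock; the first replicate is given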
The depositor's hits bear a star; i = inactive; ? = inconclusive; . = not tested or not shown; & = joins results of further samples. The list is partial (hit frequency here may not be typical).

MLL AF4-AF9 inh,HNF4A DNA FP,Vif A3G,FGF22 binding,RanGTP-Impb inh,UCH37 inh,Ecoli growth,Molecule
-0.8,-0.5,.,i,4.0,7.1,0.73,Cc1ccc(N2C(=O)CC(N3CCN/C3=C3\CC/C(=C\c4ccccc4)C3=O)C2=O)cc1 (centres undefined)
-0.7,-1.2,.,i,2.4,1.7,0.65,COc1ccc(NC(=O)CCNS(=O)(=O)c2ccc3c(c2)CC(C)N3C(C)=O)cc1 (centres undefined)
.,-2.6,.,.,-2.6,6.1,0.67,O=C(Oc1ccccc1N1C(=O)C2CCCCC2C1=O)c1ccccc1F (centres undefined)
.,1.8,23%,.,0.7,0.8,0.74,c1ccc2[nH]c(NC3=NCCC3)nc2c1
.,6.1,.,.,2.7,-0.6,0.73,O=[N+]([O-])c1cccc(C(=Nc2ccccc2)NO)c1
-1.1,-1.2,3%,i,.,0.8,0.66,COc1ccc(N2CCN(C(=O)COC(=O)c3oc4ccccc4c3C)CC2)cc1
2.6,27,4%,i,3.0,-0.7,0.7,CN(C)c1ccc(/C=C/C(=O)c2ccccc2O)cc1
0.6,1.7,3%,.,.,1.1,0.64,CCc1ccc([C@H]2C(C(=O)O)=C[C@@H](C(C)(C)C)N2S(=O)(=O)c2ccc(C)cc2)cc1
.,-1.4,3%,.,2.5,.,.,C/C(=N\NC(=O)C(c1ccncc1)N1CCOCC1)c1ccc(Br)cc1 (centres undefined)
-2.3,1.4,0%,i,-2.2,-1.5,0.7,COc1ccc(NC(=O)c2cccnc2SC)cc1OC
-1.6,-1.8,-3%,i,5.1,-0.7,0.67,CC12CCC(=O)N1C(C(=O)NCc1ccccc1F)CS2 (centres undefined)
-1.5,-0.7,-4%,i,-1.5,2.7,0.66,CCCc1nn(C)c(C(=O)Nc2ccc(Cl)cc2)c1Cl
5.3,-0.5,.,i,-1.4,4.1,0.74,Cc1cc2c(cc1S(=O)(=O)CCC(=O)NC1CCC(C)CC1)OCC(=O)N2 (centres undefined)
-1.2,1.5,-2%,.,-3.7,4.7,0.66,Cc1ccc(NC(=O)CSc2nnc(CNC(=O)c3ccco3)n2C)c(C)c1
.,2.7,?,.,-1.1,-1.2,0.77,CCCn1nc(Oc2nc(NCC)nc(NC(C)C)n2)ccc1=O
.,3.8,19%,.,-0.6,0.7,0.73,CCOC(=O)CC(=O)CSc1nnc(Cn2c(=O)sc3ccccc32)n1C
6.3,-1.6,.,i,4.1,.,.,COc1cc(/C=N/NC(=O)c2nnn(-c3nonc3N)c2-c2cccs2)ccc1O
-30,18,13%,i,0.9,3.7,0.65,N#C/C(=C(/O)COC(=O)COc1cccc(Br)c1)c1nc2ccccc2[nH]1
.,1.4,9%,.,.,-25,0.73,CCOC(=O)c1cnn2c1[nH]c(=O)c1ccccc12
0.3,2.2,-13%,i,?,4.0,0.7,CCn1c(OC)nc2c1c(=O)n(C)c(=O)n2C

Two records drawn at random from the list so far, as already listed:
MLL AF4-AF9 inh,HNF4A DNA FP,Vif A3G,FGF22 binding,RanGTP-Impb inh,UCH37 inh,Ecoli growth,Molecule
.,1.4,9%,.,.,-25,0.73,CCOC(=O)c1cnn2c1[nH]c(=O)c1ccccc12
5.3,-0.5,.,i,-1.4,4.1,0.74,Cc1cc2c(cc1S(=O)(=O)CCC(=O)NC1CCC(C)CC1)OCC(=O)N2 (centres undefined)

Going on with the list:
MLL AF4-AF9 inh,HNF4A DNA FP,Vif A3G,FGF22 binding,RanGTP-Impb inh,UCH37 inh,Ecoli growth,Molecule
-4.8,-1.0,.,i,.,.,.,Cc1noc(C)c1-c1ccc(C(=O)Nc2cccc(NS(C)(=O)=O)c2)c2occc12
-1.4,3.0,.,i,.,2.0,0.72,Cn1c(N)c(C(=O)CSc2nc(C3CC3)n(-c3ccccc3)n2)c(=O)n(C)c1=O
-0.7,3.4,-4%,i,2.6,-3.1,0.68,CCCn1cc(CN2CCCC(C(=O)c3ccc4c(c3)OCO4)C2)c(C)n1 (centres undefined)
.,4.7,11%&-3%,.,-1.6,-0.2,0.7,CC1CCN(CCCNC(=O)c2cn(C)c3ccc(S(=O)(=O)N4CCCC4)cc3c2=O)CC1
.,-5.4,8%,.,?,-2.0,0.74,O=C(NCc1cccc(Cl)c1)c1cnccn1
.,1.8,-5%,.,2.2,2.7,0.72,O=C(c1cccs1)N1CCOCC1
-1.6,-0.5,.,i,-2.2,4.0,0.65,CCc1nnc(NC(=O)CCC(=O)N2CCC(Cc3ccccc3)CC2)s1
-0.7,7.1,.,i,.,.,.,O=S1(=O)C[C@H](N2CCC[C@@H]2CO)[C@@H](COCc2ccccc2)N1
.,2.2,4%&13%,.,-1.0,1.5,0.69,COCCn1nnnc1C(c1ccc(C)cc1)N1CCN(Cc2ccc3c(c2)OCO3)CC1 (centres undefined)
-15,-4.6,-9%,i,6.3,3.2,0.71,O=C(COC(=O)C1CCN(c2ccc(C(F)(F)F)cn2)CC1)NC1CCCCC1
0.0,1.6,17%,i,2.9,-2.5,0.71,C=CCn1c(O)c(CN2CCCCC2)c(C)c(C#N)c1=O
.,-1.6,4%,.,0.1,-2.3,0.68,O=C(CCc1ccccc1)Nc1ccc2c(c1)C(=O)OC2
.,2.0,23%,.,6.9,0.7,0.71,Cc1nc(N)[nH]c(=O)c1CCC(=O)OCC(C)C
-0.9,2.2,.,i,.,.,.,CCOC(=O)C1=CCN(S(=O)(=O)c2ccccc2Br)C1c1cccc(Cl)c1 (centres undefined)
-5.1,0.6,7%,i,-2.5,4.3,0.73,COC(=O)Cn1c(=O)n(CCc2ccccc2)c(=O)c2c3c(sc21)CCCC3
-1.3,-0.5,.,i,3.2,0.6,0.7,C#CCOC(=O)CCCC(=O)NCCCCCCCC
0.4,3.0,-4%,i,-0.7,3.6,0.7,CCC1(CC)NC(=O)N(CC(=O)OC(C)C(=O)Nc2ccccc2OC)C1=O (centres undefined)
6.0,4.0,-4%,i,?,2.7,0.68,CC(C)(C)c1ccc(NC(=O)C(=O)C2C(=O)Nc3ccccc32)cc1 (centres undefined)
3.4,0.1,0%,i,3.3,-0.4,0.68,Cc1ccc(C)c(N(Cc2cc3ccc(C)cc3[nH]c2=O)C(=O)c2ccco2)c1
-0.8,-1.7,.,i,?,-1.4,0.68,CC(=O)c1cnc2nc(SCc3ccccc3C)nn2c1C
-6.1,-3.0,.,i,?,.,.,CC(C)(Cc1ccc(O)cc1)NC(=O)CC(=O)N/N=C/c1ccc(Cl)cc1
-1.0,0.5,.,i,5.8,1.5,0.69,COc1ccc(N(CC(=O)Nc2cc(C)ccc2C)S(=O)(=O)c2c(C)noc2C)cc1
-0.7,1.4,12%,i,-0.7,5.3,0.59,Cc1cnc(C(=O)NNC(=O)c2ccc(Br)cc2)cn1
-2.9,-1.8,6%,i,-1.4,4.0,0.71,COC(=O)c1cc(C#N)c(=O)[nH]c1C
1.3,1.5,-11%,i,0.7,0.6,0.66,COc1ccc(CCN=C2SCC(=O)N2Cc2ccccc2)cc1OC
.,-3.1,2%,.,-0.2,2.3,0.68,O=C1OC(Nc2ccccn2)c2ccccc21 (centres undefined)
-2.0,0.2,.,i,.,.,.,OC[C@@H]1CN(Cc2ccc3c(c2)OCO3)C[C@H](n2cnc3c(NCc4ccc(F)cc4)ncnc32)O1
5.4,3.8,1%,i,1.3,6.3,0.69,Cc1cc(C)cc(NC(=O)c2ccc(CNc3c(N4CCOCC4)c(=O)c3=O)cc2)c1
9.4,3.4,?,i,-1.1,.,.,Cc1cc(/C=N/Nc2ccc([N+](=O)[O-])cn2)c(C)n1-c1cccc(C(=O)O)c1
3.9,-0.1,.,i,-2.5,-1.4,.,C[C@@]12CCC=C[C@H]1[C@H](c1ccc(C(F)(F)F)cc1)N(Cc1ccccc1)C2=O
0.4,-3.0,2%,i,5.0,0.8,0.68,O=C(NCc1ccco1)c1cccnc1Cl
2.2,4.0,.,i,3.4,2.2,0.68,COC(=O)C1=C(C)N(CCCC(=O)O)C(=O)NC1c1ccc(C#N)cc1 (centres undefined)
2.4,-0.2,-3%,i,0.1,5.3,0.67,O=C(Nc1ccncc1)c1ccc(Cl)cc1
0.2,-2.1,-9%,i,.,.,.,O=C(Nc1ccc(Cl)cn1)c1cccc(S(=O)(=O)N2CCCCCC2)c1
.,-3.4,7%,.,2.4,1.9,0.73,Cc1nccn1S(=O)(=O)c1ccc(Br)cc1Br
-2.5,2.8,1%,i,3.1,-0.3,0.75,COc1ccc(NC(=O)CC2Sc3ncnn3C2=O)cc1 (centres undefined)
2.0,1.8,.,i,-0.9,1.5,0.68,Cc1nn(C(=O)CCC(=O)NCc2ccccc2Cl)c2ccccc12
-0.9,7.0,2%,i,-2.5,-1.1,0.67,CCOC(=O)/C=C/C(=O)OCC(=O)Nc1c(Cl)cccc1Cl
4.9,-3.2,?,i,?,.,.,O=c1[nH]cc(F)c(=O)[nH]1
13,4.9,.,i,-3.6,.,.,O=C(NNC(=S)Nc1ccc(Cl)cc1Cl)c1ccc(N2CCOCC2)c([N+](=O)[O-])c1

Single entries from the list.
For Vif A3G, CCOC(=O)/C=C/C(=O)OCC(=O)Nc1c(Cl)cccc1Cl has the entry 2%
For UCH37 inh, O=C(NCc1ccco1)c1cccnc1Cl has the entry 0.8
For MLL AF4-AF9 inh, O=c1[nH]cc(F)c(=O)[nH]1 has the entry 4.9

Following part.
MLL AF4-AF9 inh,HNF4A DNA FP,Vif A3G,FGF22 binding,RanGTP-Impb inh,UCH37 inh,Ecoli growth,Molecule
1.4,1.0,6%,.,1.3,3.9,0.71,CCC1(c2ccc(Cl)cc2)NC(=O)N(Cc2ccc(C(=O)OC)cc2)C1=O (centres undefined)
-8.0,0.5,.,i,4.8,-0.9,0.69,COC(=O)N1C(=O)[C@@](c2ccccc2)(C2CCCCC2)N1C(=O)OC
10,-0.1,4%,i,?,3.3,0.67,Cc1ccc(C)c(NC(=S)Nc2ncccc2C)c1
-10,1.6,.,i,-2.5,2.1,0.68,CCn1c(Cc2ccccc2)n[nH]c1=S
-0.6,4.8,-6%,i,-0.9,1.6,0.65,Cn1c(SCC(=O)O)nnc1-c1ccc(NC(=O)c2ccc(Cl)c(Cl)c2)cc1
0.3,-0.8,.,i,0.2,2.2,0.65,Cc1cc(CNC(=O)c2ccc3oc(C(C)C)nc3c2)nn1C
-24,2.9,.,i,1.0,4.3,0.72,OCC1(CCOc2ccccc2)CCN(Cc2ccccc2OC(F)F)CC1
-1.7,-1.1,-2%,i,3.8,6.5,0.52*,C=CCOC(=O)c1cn(CC)c2nc(C)ccc2c1=O
1.9,7.1,.,.,3.3,3.0,0.69,O=C(Nc1nc(-c2ccccc2)cs1)c1ccc(=O)[nH]c1
-3.7,-0.5,2%,i,-1.6,0.1,0.67,CCCCn1c(N)c(N(CC(C)C)C(=O)CSc2n[nH]c(-c3ccc(C)cc3)n2)c(=O)[nH]c1=O
.,-0.7,-6%,.,-1.7,1.6,0.69,Cc1cnn(CCC(=O)NNC(=S)NCC(C)C)c1
